# Compound activity as filed in PubChem.
# HNF4A DNA FP – change in binding of human HNF4 alpha to DNA. 360,000 compounds, 0.3% hits. activity change, % at 10 µM. P41235. HNF4a-FITC DNA binding, fluorescence polarization, 1 h; in the data active = activity change above about 30%, passing the limit was not always enough;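 also: controls were the assay level and a saturating level of protein; the project sought stronger binding though the title names inhibitors; some compounds called inactive have numbers as strong as hits; positive values seem to mean higher polarization but the record does not say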
# Target sequence (P41235 whole entry, looked up): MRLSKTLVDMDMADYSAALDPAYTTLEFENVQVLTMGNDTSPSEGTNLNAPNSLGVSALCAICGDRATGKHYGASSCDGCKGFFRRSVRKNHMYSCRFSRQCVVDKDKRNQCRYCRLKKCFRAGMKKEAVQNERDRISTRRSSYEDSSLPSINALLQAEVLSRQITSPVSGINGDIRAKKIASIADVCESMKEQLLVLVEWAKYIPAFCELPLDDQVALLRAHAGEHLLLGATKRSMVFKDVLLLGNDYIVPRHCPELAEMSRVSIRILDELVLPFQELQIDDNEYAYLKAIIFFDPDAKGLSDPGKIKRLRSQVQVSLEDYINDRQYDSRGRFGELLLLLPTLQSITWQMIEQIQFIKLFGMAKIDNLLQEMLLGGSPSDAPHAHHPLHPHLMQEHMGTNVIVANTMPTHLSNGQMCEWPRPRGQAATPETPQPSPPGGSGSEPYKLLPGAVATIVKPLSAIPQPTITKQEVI
# ALR inh – blocks human ALR sulfhydryl oxidase activity; AID 485317; 290,000 compounds, 3.8% hits; P55789; inhibition, % (no concentration beside the values); purified ALR, DTT oxidation, H2O2 HRP-luminol luminescence;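 active = mean and each replicate at 75% or more; inconclusive = only one of the two met; inactive = neither met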;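 also: stock transfer was 7.5 nL into about 7.5 µL; 0% = neutral wells and 100% = wells with inactivated enzyme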
# Target sequence (P55789 whole entry, looked up): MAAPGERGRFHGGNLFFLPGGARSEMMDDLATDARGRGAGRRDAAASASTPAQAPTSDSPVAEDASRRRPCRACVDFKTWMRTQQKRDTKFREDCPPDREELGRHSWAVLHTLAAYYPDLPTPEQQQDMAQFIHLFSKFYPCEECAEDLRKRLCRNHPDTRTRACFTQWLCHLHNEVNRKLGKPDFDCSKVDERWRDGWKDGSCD
# FGF22 binding – FGF22 (human) thermal shift binding | Q9HCT0 | recombinant FGF22 thermal shift, SYPRO orange fluorescence; percent of sucrose octasulfate shift, DMSO zero | calls only at 9.99 µM | 340,000 compounds, 1.5% hits | AID 651658;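 active = melting point raised past a set limit in the mean and every replicate; inconclusive = no clear call; three in four hits are not shown here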
# Target sequence (Q9HCT0 whole entry, looked up): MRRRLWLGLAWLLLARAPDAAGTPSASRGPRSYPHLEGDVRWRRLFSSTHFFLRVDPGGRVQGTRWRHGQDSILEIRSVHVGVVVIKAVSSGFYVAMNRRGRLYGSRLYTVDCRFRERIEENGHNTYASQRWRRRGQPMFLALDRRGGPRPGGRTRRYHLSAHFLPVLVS
# rRNA inh HTS – inhibitors of bacterial rRNA selective over humanized ribosomes | E. coli WT GFP vs humanized-ribosome RFP mutants, fluorescence, 24 h; hits give low values; DMSO median 0, no signal -100 | GFP signal change (wild-type ribosome), % (test concentration not listed) | 350,000 compounds, 1.6% hits | AID 720706;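 active = significant combined selectivity score with lowered wild-type GFP, culture density cut under 30%, mutant RFP and density less affected; inactive = any of these conditions unmet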; also: one replicate is shown; some compounds called inactive have numbers as strong as hits
# E coli growth – inhibitors of Escherichia coli growth; OD600, 23 h; hits give low values; AID 1053175; 330,000 compounds, 0.21% hits; OD600 absorbance (concentration not given with the values);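 active = OD600 absorbance below the run mean of sample wells minus 3.6 SD, in any replicate, cut at about 0.56 in these data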;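 also: stock transfer was 300 nL into about 60 µL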
# Vif A3G – inhibitors of Vif binding to APOBEC3G peptide, primary screen, biochemical, TR-FRET, GST-Vif 1-94, biotin-A3G peptide, dose response retest (AID 1117319). TR-FRET GST-Vif / biotin-A3G peptide binding; higher % means a stronger effect; test concentration not given here; strong numbers were not always called active. inhibition, %; hits with a dose series show IC50 in µM. 260,000 compounds, 0.57% hits;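 active = above the screen mean plus three standard deviations and confirmed in dose response; inconclusive = results disagree or hit not tested in dose response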;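 also: Vif residues 1-94 fused to GST binding biotinylated APOBEC3G peptide 110-148; 0% = full assay without inhibitor and 100% = GST in place of GST-Vif; retest series ran down from 100 µM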
# MLL AF4-AF9 inh – inhibitors of human MLL-AF4/AF9 interaction; inhibition, % at 10 µM; 350,000 compounds, 0.47% hits; P42568; AlphaScreen, biotin-AF4 peptide binding to FLAG-AF9;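 active = every replicate reaching a set inhibition limit, whatever the replicate mean, cut at about 25% in these data; inconclusive = mean inhibition reaches that limit but some replicates miss it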;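 also: 0% = plate neutral control median and 100% = total signal loss; the record names both 10 and 1 µM as test concentration; the first replicate is given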
# rRNA inh HTS OD600 – further read-out of rRNA inh HTS, marked with its call; OD600 change, %; measured here: OD600 growth;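 optical density of the mix in the first replicate; 0 = DMSO median and -100 = no signal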
# rRNA inh HTS RFP – second read-out of rRNA inh HTS, no call of its own (marks repeat the call); RFP signal change, %; measured here: RFP humanized mutant strains;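 first replicate; 0 = DMSO median and -100 = no signal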
# Starred values were filed as active, the others as inactive; i = inactive; ? = inconclusive; / = no result given. Not all compounds are listed, so the mix of outcomes need not match the whole.
SMILES,HNF4A DNA FP,ALR inh,FGF22 binding,rRNA inh HTS,rRNA inh HTS OD600,rRNA inh HTS RFP,E coli growth,Vif A3G,MLL AF4-AF9 inh
CC1CCN(c2c(NCC3CCC(C(=O)NC4CCCCCC4)CC3)c(=O)c2=O)CC1 (configuration not stated),1.5,/,/,7,9,-0.8,0.71,/,-12
COc1ccc(Cl)cc1Nc1nc(Cl)nc(NCCO)n1,-1.4,/,i,1,-2,-1.6,/,-3%,3.6
CCCCc1nc(C(N)=O)c2[nH]c(=O)n(-c3ccc(OC)c(OC)c3)c2n1,-0.1,-18,/,/,/,/,0.69,29%,/
COc1ccc2oc(C(=O)OCC(=O)N(Cc3ccccc3)C(C)C)c(C)c2c1,0.2,-5,/,-1,-11,-0.1,0.72,-1%,-1.1
CCC(=O)Nc1ccc(C(=O)COC(=O)c2nc3nccc(C)n3n2)cc1,-43,-2,i,13,14,-2.2,0.7,?,-2.0
CCCN1C[C@@H](C)[C@@H](OC)CN(C)C(=O)c2ccc(NS(=O)(=O)c3cn(C)cn3)cc2OC[C@@H]1C,/,/,i,0,2,2.6,/,/,-2.2
COC(=O)c1c(NC(=O)C(C)(C)C)csc1C,-6.6,-3,i,13,3,0.8,0.67,1%,/
Cc1nc2ccc(Br)cn2c(=O)c1Cl,2.2,-4,/,/,/,/,0.7,24%,/
O=C(Cc1c(F)cccc1Cl)N1CCN(S(=O)(=O)c2cccc(F)c2)CC1,3.0,-8,i,4,5,-0.5,0.7,-2%,-1.5
Cc1cccc(NC(=O)CCCN2C(=O)C3CC=CCC3C2=O)c1 (configuration not stated),-1.3,-1,i,2,-3,-0.3,0.68,/,-0.8
COC(=O)c1ccccc1NC(=O)CSc1n[nH]c(-c2ccncc2)n1,-4.5,0,i,6,12,0.9,0.65,/,-3.2
CC(C)[C@H](NC(=O)NCc1ccc(Cl)cc1)C(=O)O,0.0,4,/,/,/,/,0.7,-2%,/
Cc1nc2ccc(NC(=O)c3ccc([N+](=O)[O-])cc3)cc2[nH]1,2.9,-16,i,5,10,1.8,0.62,/,1.0
CC(C)CC(=O)Nc1nnc(S(=O)(=O)N(C)c2ccc(Cl)cc2)s1,0.4,/,i,-3,2,-1.4,0.69,1%,-1.4
C=CCCCCCCCCC(=O)NNC1=CC(=O)CC(C)(C)C1,0.0,/,/,/,/,/,0.72,1%,/
CC(=O)N1[C@@H](CO)[C@@H](c2ccccc2)[C@@H]1CN(C)C(=O)CN1CCOCC1,/,/,i,1,0,0.4,/,/,-2.9
CCCCNC(=S)NC(=O)c1ccc([N+](=O)[O-])cc1,-1.6,/,/,/,/,/,0.72,-3%,/
NC(=O)Cn1c(=O)n(Cc2ccccc2)c(=O)c2cccnc21,1.4,6,i,4,6,0.0,0.66,1%,0.7
CCC(Cc1ccccc1)NC(=O)C1=C(C)C(=O)OC12CCC(C)CC2 (configuration not stated),0.0,-6,i,18,14,-3.5,0.68,-7%,-1.6
O=C(c1coc(=O)c(Br)c1)N1CCCc2ccccc21,-2.2,?,/,/,/,/,0.7,24µM*,/
O=C(NCC1CCCO1)c1cc2c(s1)CCC2 (configuration not stated),1.6,34,i,9,25,6.0,0.62,-3%,-1.6
N#CCCN(C(=O)COC(=O)CCC(=O)c1cccs1)c1ccccc1,-3.3,/,i,-2,0,-0.6,0.71,/,-14
C[C@@H]1CCCCO[C@@H](CN(C)C(=O)Nc2ccc(F)cc2)[C@H](C)CN([C@@H](C)CO)C(=O)c2cc(NS(=O)(=O)c3ccccc3)ccc2O1,/,/,i,-11,-6,1.6,/,/,1.4
CCOCc1nnc(NC(=O)c2ccc(NC(C)=O)cc2)s1,2.2,3,i,6,12,-0.1,0.67,6%,-1.0
COc1cccc(-c2ccc3ncnc(NCc4cccs4)c3c2)c1,0.8,-1,i,0,5,-2.4,0.59,/,2.6

# Compound profiles (already shown). Values in the order: HNF4A DNA FP, ALR inh, FGF22 binding, rRNA inh HTS, rRNA inh HTS OD600, rRNA inh HTS RFP, E coli growth, Vif A3G, MLL AF4-AF9 inh
# Entry for CCC(Cc1ccccc1)NC(=O)C1=C(C)C(=O)OC12CCC(C)CC2 (configuration not stated) : 0.0, -6, i, 18, 14, -3.5, 0.68, -7%, -1.6
# Entry for COc1ccc(Cl)cc1Nc1nc(Cl)nc(NCCO)n1 : -1.4, /, i, 1, -2, -1.6, /, -3%, 3.6
# Entry for NC(=O)Cn1c(=O)n(Cc2ccccc2)c(=O)c2cccnc21 : 1.4, 6, i, 4, 6, 0.0, 0.66, 1%, 0.7
# Entry for C[C@@H]1CCCCO[C@@H](CN(C)C(=O)Nc2ccc(F)cc2)[C@H](C)CN([C@@H](C)CO)C(=O)c2cc(NS(=O)(=O)c3ccccc3)ccc2O1 : /, /, i, -11, -6, 1.6, /, /, 1.4

# (continued)
SMILES,HNF4A DNA FP,ALR inh,FGF22 binding,rRNA inh HTS,rRNA inh HTS OD600,rRNA inh HTS RFP,E coli growth,Vif A3G,MLL AF4-AF9 inh
COC(=O)c1c(NC(C)=O)sc(C)c1C,-3.4,/,i,1,3,0.0,0.64,0%,-2.6
COc1ccc(S(=O)(=O)N2CCCCCC2)cc1C(=O)N1CCCC(C(F)(F)F)C1 (configuration not stated),-0.5,-2,i,-6,-9,-1.4,0.69,-4%,-1.5
Cc1cc(C(=O)OCC(=O)Nc2ccccc2)c(C)o1,3.7,13,i,5,7,-0.6,0.73,-4%,2.7
Cc1c(NC(=S)/C=C2\N(C)c3ccccc3C2(C)C)c(=O)n(-c2ccccc2)n1C,3.1,95*,/,/,/,/,0.73,3%,/
O=C(C[C@@H]1C=C[C@@H](NC(=O)Cc2ccccn2)[C@H](CO)O1)NCCc1ccncc1,/,/,i,2,8,-0.2,/,/,-1.9
COc1ccc(N2CC(C(=O)Nc3nc4ccc(OC)cc4s3)CC2=O)cc1 (configuration not stated),1.9,-18,i,-4,-17,10,0.66,/,2.3
O=[N+]([O-])c1cc(CN2CCCCCC2)ccc1O,0.5,-5,i,25,18,1.9,0.64,8%,-1.3
Cc1ccc(C)c(NC(=O)COC(=O)Cn2c(C)csc2=O)c1,-1.0,4,i,7,4,0.1,0.66,0%,-13
O=C(Nc1ccc(S(=O)(=O)N2CCCC2)cc1)C1CC(=O)N(CCc2ccccc2)C1 (configuration not stated),4.2,/,i,-3,-18,-2.4,/,2%,-4.3
O=C1C=C(c2cccc(CO)c2)C[C@@H](c2ccc3c(c2)OCO3)C1,-1.3,-18,i,-2,-9,-6.1,/,/,-17
O=C(CSc1ccc(C(F)(F)F)cc1[N+](=O)[O-])N1CCOCC1,6.2,-11,i,5,13,-0.7,0.62,-2%,8.8
COc1ccc(/C=N/NC(=O)c2nonc2C)cc1,0.1,-19,/,/,/,/,/,1%,/
O=C(NCC[C@@H]1CC[C@H](NC(=O)C2CCC2)[C@H](CO)O1)Nc1ccc(Cl)cc1,/,/,i,-27,-45,10,/,/,11
O=C(c1cnn(Cc2ccccc2)c1)N1CCN(S(=O)(=O)/C=C/c2ccccc2)CC1,0.2,-26,i,-2,-15,1.6,0.72,0%,-7.4
COc1cc2c(cc1OC)CN(C(=O)CCOc1ccccc1C)CC2,2.8,/,i,-16,-9,3.8,0.65,3%,-7.8
CC(=O)c1ccc(C(=O)N2CCCC(CNC(=O)c3ccccc3Cl)C2)cc1 (configuration not stated),0.4,-3,i,6,11,1.0,0.69,?,-1.1
N#C[C@H]1[C@H](c2ccccc2C2=CCCCC2)[C@H](CO)N1C(=O)c1cccc(F)c1,/,/,i,-7,-52,21,/,/,0.8
COc1ccccc1NC(=O)N1CCCCN2[C@H](CO)[C@@H](c3ccc(-c4cccc(C)c4)cc3)[C@@H]2C1,/,/,i,1,-2,8.7,/,/,-5.0
CCN(C(=O)CCS(=O)(=O)c1ccc2c(c1)oc(=O)n2C)c1ccc(OC)cc1,-1.5,-8,i,5,13,0.8,0.7,/,-0.5
COc1ccc(C(=O)NCCCSc2ccccc2)cc1F,3.6,-12,i,3,17,-0.2,0.67,/,-17
CN1CCCC(OC(=O)c2cccc(Br)c2)C1 (configuration not stated),-1.7,-7,i,-3,4,-2.3,0.64,/,-28
CC(O)c1n(C)c(Cl)c[n+]1C (configuration not stated),0.2,-2,/,/,/,/,0.7,2%,/
CCCCn1c(N)c(Br)c(=O)[nH]c1=O,-1.8,-1,i,6,2,-0.4,0.7,23%,1.1
CCOC(=O)c1oc2ccccc2c1CN1CCN(c2ccccc2)CC1,1.4,94*,/,/,/,/,0.72,-2%,/
COc1ccc(NC(=O)N(C)C[C@@H]2Oc3ccc(NC(=O)CCC(F)(F)F)cc3C(=O)N([C@@H](C)CO)C[C@H]2C)cc1,/,/,i,7,5,0.4,/,/,-3.2

# Next compounds
SMILES,HNF4A DNA FP,ALR inh,FGF22 binding,rRNA inh HTS,rRNA inh HTS OD600,rRNA inh HTS RFP,E coli growth,Vif A3G,MLL AF4-AF9 inh
COc1ccc2ccc(C(C)(C(C)=O)C(=O)OC(C)C)cc2c1 (configuration not stated),2.8,0,i,-12,-12,-3.5,0.62,/,-3.0
O=C(c1cnc(N2CCN(c3ncccn3)CC2)c2ccccc12)N1CCN(c2ccccn2)CC1,0.8,-13,/,/,/,/,0.72,-4%,/
Cc1cccc(NCc2nc(SCC(N)=O)n[nH]2)c1,-1.0,28,/,/,/,/,0.7,0%,/
CC(NC(=O)Nc1ccc([N+](=O)[O-])cc1)C(c1ccccc1)N1CCOCC1 (configuration not stated),3.2,15,i,-11,-16,-2.8,0.69,-6%,6.9
O=C(COc1ccc(Cl)cc1)NCc1nnc(SCC(=O)Nc2ccccc2)o1,-2.1,0,/,/,/,/,0.71,5%,/
C[C@@H]1CN([C@@H](C)CO)S(=O)(=O)c2ccc(-c3ccncc3)cc2O[C@@H]1CN(C)Cc1cccnc1,/,/,i,-5,0,2.1,/,/,0.3
CCCNC(=O)NS(=O)(=O)c1cnccc1Sc1ccc(Cl)cc1,-1.8,0,/,/,/,/,0.67,0%,/
COc1ccc(OC)c(-c2cc(C(=O)Nc3ccccc3C(N)=O)c3ccccc3n2)c1,0.8,-1,i,-11,21,3.0,0.69,/,3.6
O=C(NNC(=S)NC(=O)c1ccccc1Cl)c1cccc([N+](=O)[O-])c1,-0.7,97*,i,-11,-22,-5.4,0.64,2%,-14
C[C@@H](NC(=O)[C@@H]1Cc2ccccc2CN1C(=O)OC(C)(C)C)C(=O)NC1CCCCC1,3.0,2,i,1,1,-1.9,0.68,1%,-2.0
CCCNC(=O)[C@@H]1[C@@H](CO)[C@@H]2Cn3c(cccc3=O)[C@@H]2N1CCC(F)(F)F,/,/,i,0,-1,-3.5,/,/,-0.3
O=C(CSc1nc2ccccc2c(=O)n1-c1ccccc1)Nc1ccc2c(c1)CCC2,-0.6,/,i,2,7,1.4,/,/,-1.2
Cc1cc(Cl)ccc1OCC(=O)NCC(c1cccs1)N1CCOCC1 (configuration not stated),2.1,/,i,5,-8,2.1,0.67,-6%,-0.2
Cc1c(C(=O)NC(C(C)C)C(C)C)cccc1[N+](=O)[O-],-1.9,/,/,/,/,/,0.69,2%,/
O=C(C[C@H]1CC[C@H](NC(=O)c2cccc(F)c2)[C@@H](CO)O1)NCCN1CCCC1,/,/,i,4,4,-1.6,/,/,-0.3
Cc1ccc(NC(=O)c2ncn(CCCNCc3ccccc3)n2)cc1C,-2.1,/,i,3,5,2.4,/,4%,-1.2
C[C@@H]1CN([C@@H](C)CO)C(=O)Cc2cc(NC(=O)CCCCCC(=O)Nc3ccccc3N)ccc2O[C@H]1CN(C)C,/,/,i,4,-5,-2.8,/,/,-2.4
CC(=O)Nc1cc(C(C)(C)C)c(O)c(C(C)(C)C)c1,1.6,2,/,/,/,/,0.72,1%,/
